# D2 potentiator – Beta-Arrestin HTS for Positive Allosteric Modulators of the Human D2 Dopamine Receptor: Potentiators; potentiation, % (no concentration beside the values); DiscoveRx D2 beta-arrestin cells, luminescence, 90 min; 100% = 57 uM dopamine signal; D(2) dopamine receptor (Homo sapiens), P14416; 360,000 compounds, 0.23% hits; AID 624464, 2012; active = potentiation of 50% or more; inconclusive = 30% to 50%; inactive = 30% or less;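 further: compound concentration not given in the record; tested on top of an EC20 dose of dopamine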
# Target sequence (P14416 whole entry, looked up): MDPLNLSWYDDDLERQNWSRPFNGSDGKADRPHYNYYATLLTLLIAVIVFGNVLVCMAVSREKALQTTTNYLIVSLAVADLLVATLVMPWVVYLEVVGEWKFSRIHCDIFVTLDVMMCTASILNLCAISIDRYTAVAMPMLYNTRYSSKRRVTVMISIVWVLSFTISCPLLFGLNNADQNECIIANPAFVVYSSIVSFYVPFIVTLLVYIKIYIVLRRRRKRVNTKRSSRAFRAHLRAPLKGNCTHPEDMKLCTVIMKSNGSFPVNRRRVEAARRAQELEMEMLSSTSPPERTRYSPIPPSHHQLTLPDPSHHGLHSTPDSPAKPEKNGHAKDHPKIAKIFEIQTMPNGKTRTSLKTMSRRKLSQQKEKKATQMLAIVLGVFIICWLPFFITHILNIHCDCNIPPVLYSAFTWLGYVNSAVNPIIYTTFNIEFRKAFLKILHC
#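 PathHunter beta-arrestin assay in DiscoveRx D2 cells. Compounds were added with an EC20 of dopamine (50 nM final) for 90 min at 37 deg C. Luminescence was read 1 h after detection reagent, with 57 uM dopamine as the EC100 control.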
# Sfp PPTase inh – qHTS Assay for Inhibitors of Bacillus subtilis Sfp phosphopantetheinyl transferase (PPTase); AID 1490, 2009; Biochemical Sfp PPTase activity, qHTS; 310,000 compounds, 3.5% hits; Potency, µM, for the others: max response, negative = inhibition, usual class: inhibitors; 4'-phosphopantetheinyl transferase ffp (Bacillus subtilis), Q9F4F7; active means well fitted inhibition curve with a large enough effect; inconclusive means small, poorly fitted or top-dose-only effect, or another doubt; inactive means no such curve, though single readings can be large or run the other way;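 further: the enzyme is Sfp with the accession as filed and its product quenches rhodamine fluorescence; potency means the concentration at half of the fitted maximal effect; 0% = enzyme reaction without inhibitor and -100% = no enzyme wells; top concentration of the series not given in the record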
#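 Sfp 15 nM + cpd, 15 min RT; start w/ rhodamine-CoA 5 uM, BHQ-2-YbbR 12.5 uM (final); 50 mM Hepes pH 7.6, 10 mM MgCl2, 0.01% NP-40, 0.01% BSA; read 525/598 nm at 0 and 30 min.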
# gsp antag – qHTS for Antagonists of gsp, the Etiologic Mutation Responsible for Fibrous Dysplasia/McCune-Albright Syndrome: qHTS | gsp-mutant cells, cAMP HTRF, 30 min; control for the full effect not named in the record | Potency, µM (series often up to 76.9 µM), inactives show at the highest dose activity change, negative = inhibition, actives largely listed as inhibitors | 340,000 compounds, 0.4% hits | AID 624288, 2012; active = falling curve of any shape with a large fitted effect; inconclusive = falling curve, mostly with a smaller effect; inactive = flat or rising curve; cell line not stated here;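 further: intracellular cAMP measured with PDE inhibitor Ro 20-1724 present during compound exposure; potency means the concentration at half of the fitted maximal effect; on the % scale 0 is the no-effect control and ±100 the full control effect; nearly all actives have a fitted effect of over 65% in size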
#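 Cells, 2000/well, grown 16–24 h in DMEM 10% FBS with 0.5 mg/ml G418, then compounds plus […] (300 uM addition stock), 30 min at 37C. cAMP read by HTRF (cAMP-d2 and anti-cAMP antibody-K in lysis buffer) after 30 min RT.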
# TRPV1 PAM – HTS Assay for Compounds that Act as Potentiators of the Vanilloid Receptor 1 | 320,000 compounds, 0.02% hits | TRPV1-expressing cells, Fluo-8 calcium influx, capsaicin EC20 potentiation; host cell line not named in the record; control for the full effect not named in the record | potentiation, % at 8.33 µM | Transient receptor potential cation channel subfamily V member 1 (Homo sapiens), Q8NER1; active means potentiation above 80%; inconclusive means 30% to 80%; inactive means below 30%; further: 0% is about no effect
#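 Fluo-8 calcium influx in TRPV1-expressing cells, kinetic read (ex 480/em 520 nm). Compound added and read 3 min for agonist activity, followed by capsaicin at EC20 final and 2 min further read for enhancement.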
# Menin-MLL FL inh – qHTS Assay for Inhibitors Targeting the Menin-MLL Interaction in MLL Related Leukemias: Competition With Fluorescein Labeled MLL-derived Peptide. FP activity change, % at 61.4 µM. Fluorescence polarization, fluorescein-MLL peptide displacement from menin. 290,000 tested, under 10 active; inconclusive = falling polarisation curve, or a change in total fluorescence; inactive = total fluorescence flat and polarisation flat or rising; no compound was filed as active; the % refers to the polarisation; negative = inhibition;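 further: % of control where 0% means no effect; inhibitors lower the polarisation; unlabelled MLL peptide was the positive control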
# ClpP mod – qHTS Assay for Activators of ClpP. ATP-dependent Clp protease proteolytic subunit (Bacillus subtilis (strain 168)), P80244. purified B. subtilis ClpP, FRET peptide cleavage, 20 min. Potency, µM (top dose mostly 57.5 µM), for inactives: at the top dose activity change, negative = active. 340,000 compounds, 1.9% hits; active = well fitted falling curve with a large enough effect; inconclusive = small, poorly fitted or top-dose-only effect; inactive = no such curve, though single readings can be large or run the other way; further: potency means the concentration at half of the fitted maximal effect; the source files actives as falling curves though it sought activators and does not explain the sign; nearly all actives have a fitted effect of over 65% in size; many hits overshoot -100%
# Target sequence (P80244 whole entry, looked up): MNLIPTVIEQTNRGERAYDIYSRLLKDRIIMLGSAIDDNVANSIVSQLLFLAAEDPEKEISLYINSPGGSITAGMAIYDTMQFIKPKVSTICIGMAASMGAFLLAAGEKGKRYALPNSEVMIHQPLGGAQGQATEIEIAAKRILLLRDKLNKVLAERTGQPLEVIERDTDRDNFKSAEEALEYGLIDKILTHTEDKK
#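 ClpP 10 microg/mL final, pH 8 Tris/KCl buffer with BSA, glycerol, Tween-20; compound pinned in; FRET-FV substrate; RT 20 min; Ex320/Em430; ΔFRET vs ADEP 5.8 microM, DMSO, no enzyme.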
# gsp agonist – qHTS for Agonist of gsp, the Etiologic Mutation Responsible for Fibrous Dysplasia/McCune-Albright Syndrome: qHTS | gsp mutant cells, cAMP HTRF, 30 min; control for the full effect not named in the record | 340,000 compounds, 0.13% hits | Potency, µM (series often up to 76.9 µM), for the others: at the highest dose activation (cAMP increase), usual class: activators; active = well fitted activation curve with a large enough effect; inconclusive = small, poorly fitted or top-dose-only effect, or another doubt; inactive = no such curve, though single readings can be large or run the other way; cell line not stated here;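 further: phosphodiesterase inhibitor Ro 20-1724 added with compounds to block cAMP breakdown; potency means the concentration at half of the fitted maximal effect; nearly all actives have a fitted effect of over 60% in size; about a fifth of the inactives were tested at one dose only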
#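 Cells stably selected in G418 were plated at 2000/well, grown 16-24 hr, then given compounds in DMSO with the PDE inhibitor […] (300 uM solution added) for 30 min at 37C; cAMP was read by HTRF.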
# * hit, by the source's call; ? = inconclusive; · = no result given; [ ] = dose if it differs, or a comment.
SMILES,D2 potentiator,Sfp PPTase inh,gsp antag,TRPV1 PAM,Menin-MLL FL inh,ClpP mod,gsp agonist
O=C(c1ccccc1NS(=O)(=O)c1ccccc1)N1CCCCCC1,-4,7%,6%,28,1.6,-0.9%,0%[15.4 µM]
CCCC1=NN(C(=O)Cc2ccc(OC)cc2)C(O)(C(F)(F)F)C1 (stereo not given),-11,17%,13%,-2,4.3,1.7%,-8%
CN1CCN(Cc2cc(=O)oc3cc4c(cc23)CCC4)CC1,-17,-5%,13%,·,3.4,-21%,22%
O=C1c2ccccc2C(=O)N1OCc1c(F)cccc1Cl,4,?,6%,-18,-1.2,·,25%
COc1ccc([N+](=O)[O-])cc1NC(=O)CCN1CCN(c2ccccc2)CC1,6,-12%,-5%,3,3.0,·,-7%[15.4 µM]
Cc1cc(C)c(OCC(=O)NCC(C)(C)N2CCOCC2)c(C)c1,-1,·,-7%,16,·,·,-1%[15.4 µM]
NNC(=O)C1CC1c1ccc(Cl)cc1 (stereo not given),-9,13%,1%,-21,0.9,-1.4%,?
Cc1cccc(NS(=O)(=O)c2ccc(-c3ccc(=O)[nH]n3)o2)c1,-4,3%,7%,-11,5.6,0.6%,?
COc1ccc(Cl)cc1NC(=S)NCCC(c1ccccc1)c1ccccc1,-30,8%,-12%,-43,4.3,2.4%,-2%[15.4 µM]
COc1ccccc1NS(=O)(=O)c1cccc(C(=O)NCC(c2ccccc2OC)N2CCCC2)c1 (stereo not given),-43,·,-11%,2,·,-8.7%,-21%
COc1ccc(OCC(=O)NNC(=S)NC(=O)C2CC2)cc1,5,16%,-2%,?,·,-0.8%,27%
CCOc1ccc(/C=C2\SC(=S)N(Nc3ccccc3)C2=O)cc1OC,-8,?,-5%,-5,7.1,-2.4%,-1%
Cc1cccc(NC(=O)c2nc(S(=O)(=O)Cc3ccccc3)ncc2Cl)c1,-11,?,-13%,-14,·,·,15%[15.4 µM]
CCOc1cc(/C=N/NC(=O)c2cccnc2)ccc1OCC(=O)N(C)C,2,25%,8%,15,-0.7,·,9%[15.4 µM]
O=C(NC1CCN(Cc2ccccc2)CC1)c1ccc(N2CC3CC(C2)c2cccc(=O)n2C3)c([N+](=O)[O-])c1 (stereo not given),-15,0%,10%,-6,-4.5,·,-15%[15.4 µM]
Cc1ccc2c(c1)C1OCCC1C1N2C(=O)C2C(C(=O)O)C3C=CC21O3 (stereo not given),15,0%,7%,-5,-4.4,-4.3%,16%
COC(=O)C1CCN(C(=O)N2CCOCC2)CC1,7,18%,-1%,9,5.0,0.5%,1%
O=C(CSc1nnnn1C1CCCC1)Nc1ccc2c(c1)OCCO2,-9,2%,-1%,-10,-0.1,-0.4%,-3%
O=C(O)c1ccc(CCCc2ccccc2)cc1,-2,·,-7%,·,·,·,-32%
CCN(CC(=O)Nc1ccc2c(c1)OCCO2)C(=O)c1ccc([N+](=O)[O-])s1,11,·,1%,10,·,3.1%,11%
Cc1ccc(C)c(CSc2nnc(-c3cccnc3)o2)c1,-8,-7%,5%,27,1.0,0.4%,-28%
COC(=O)c1cc(OC)c(OC)cc1NC(=O)c1ccccc1C,1,14%,7%,13,2.4,-0.2%,-1%
Cc1cc(C)n2cc(CSc3ccccn3)nc2n1,-7,2%,11%,3,-4.2,·,-16%
CCOC(=O)C1CCN(c2c(N(C)Cc3ccco3)c(=O)c2=O)CC1,-5,-4%,-14%,-5,-0.1,0.4%,19%
CC(=O)N1c2ccc(S(=O)(=O)NCC3CCC(C(=O)N(C)Cc4ccccc4)CC3)cc2CC1C (stereo not given),-11,3%,-18%,1,-0.5,3.3%,-13%
Cc1ccc(N(CC(N)=O)C2SC(=O)N(Cc3cccc(C(=O)O)c3)C2=O)cc1 (stereo not given),-2,-4%,4%,-6,2.0,-3.6%,5%
Cc1cccc(N2C(=O)N3[C@H](c4ccc(Br)cc4)[C@@H]4C(=O)N(C(C)(C)C)C(=O)[C@@H]4[C@]3(Cc3ccc(Cl)cc3)C2=O)c1,-17,21%,-5%,6,-1.1,2.2%,?
Cn1c(=O)c2c(ncn2CC(=O)OCC(=O)Nc2sccc2C(N)=O)n(C)c1=O,21,·,13%,13,·,-1.3%,31%
O=C(COC(=O)c1ccccc1Nc1ccccc1)NCc1ccccc1Cl,-7,-18%,-17%,16,0.7,729%,-5%[15.4 µM]
CC1(C)CC(NNCCC#N)=CC(=[N+]2CCCC2)C1,-7,-16%,-7%,-10,?,·,0%[15.4 µM]
CCOC(=O)C1CCN(CC(=O)NC(=O)NC2CCCCC2)CC1,-2,11%,4%,1,0.5,-2.6%,-8%[15.4 µM]
CCOC(=O)C(=O)Nc1ccccc1C(=O)NC(C)C,-4,17%,11%,-5,2.8,2.0%,7%
CC1=C(C(=O)N(C)C)C(c2ccc(C)s2)NC(=S)N1 (stereo not given),-20,13%,·,-3,0.5,·,-2%[15.4 µM]
CCOC(=O)N1CCC(NC(=O)CCS(=O)(=O)c2ccc3c(c2)CCN3C(C)=O)CC1,2,0%,8%,-7,0.9,-5.3%,-2%
Cc1c(C(=O)N(C)C2CCCCC2)sc2ncnc(N3CCN(c4ccccc4)CC3)c12,-2,-6%,?,-1,·,-0.8%,-15%
CCCCn1c(-c2cccnc2)n[nH]c1=S,1,?,5%,17,0.8,0.3%,15%
O=C(/C=C/c1ccc(O)c(O)c1)O[C@H](Cc1ccc(O)c(O)c1)C(=O)O,·,50µM*,·,-17,9.0,·,·
O=C(COC(=O)CNC(=O)C1CCCCC1)Nc1ccc(Cl)cn1,-11,9%,-17%,-18,0.1,-0.7%,-40%[inhibitor]
CCOC(=O)N1CCN(C(=O)C2CCN(C(=O)c3cc(OC)cc(OC)c3)CC2)CC1,9,14%,2%,-8,4.1,1.5%,19%
Cc1cccc(C)c1NC(=O)C1(N(Cc2ccco2)C(=O)c2ccccn2)CCCC1,-25,12%,0%,-3,2.1,-0.8%,-14%
C/C(=N\NC(=O)c1c[nH]c2ccccc12)c1ccccn1,2,29%,-2%,6,10,·,-16%[15.4 µM]
C[C@H](CO)N1C[C@H](C)[C@H](CN(C)C(=O)Cc2cccnc2)Oc2ncc(Br)cc2C1=O,1,·,·,·,·,-1.1%,11%
Cn1c(=O)[nH]c(=O)c2c1nc(NCCCn1ccnc1)n2CCOc1ccccc1,-6,4%,0%,2,-1.9,-1.0%,-10%
Cc1cc(NC(=O)c2cccc(Br)c2)n[nH]1,-13,·,-6%,-11,·,0.7%,-1%
COc1cccc(C(=O)Oc2c(CN3CCOCC3)cc(Cl)c3cccnc23)c1,-20,-16%,-25%,-9,0.4,-0.4%,-10%
O=C(CCl)NC1(C(=O)O)CCCC1,-1,·,·,·,·,-1.0%,?
O=C(Cc1c[nH]c2ccccc12)NCc1ccco1,-4,8%,4%,11,3.4,1.9%,-8%[15.4 µM]
CCOC(=O)c1cc(-c2ccc(OC)cc2)nn1-c1ccccc1C(=O)O,-6,-9%,-5%,0,2.3,-1.9%,7%
COc1cc(OC)cc(C(=O)Nc2ncc3c(n2)CC(C)CC3=O)c1 (stereo not given),-10,15%,14%,0,2.9,-0.6%,-8%
CSc1ncccc1C(=O)Nc1cccc(S(=O)(=O)N2CCCCCC2)c1,-3,·,-16%,·,·,1.4%,-15%
CC1=CC(C)(C)N2C(=O)C3(SCC(=O)N3c3ccc(O)cc3)c3cc(C)cc1c32 (stereo not given),-21,-4%,-6%,?,2.1,0.2%,-13%
Cc1nn(CC(O)Cn2cnc3c2c(=O)n(C)c(=O)n3C)c(C)c1Br (stereo not given),1,17%,23%,8,1.8,0.7%,?
CCN(CC(=O)Nc1c(C(=O)OC)[nH]c2ccc(C)cc12)c1ccc2c(c1)OCO2,4,45µM*,-10%,6,-3.2,1.6%,-2%
COc1ccc(C)cc1NC(=O)c1cc2ccccc2o1,-9,-10%,7%,-12,-0.6,92%,-31%[inhibitor]
Cc1cc(OC(=O)c2ccc(C(F)(F)F)cc2)c([N+](=O)[O-])c(=O)[nH]1,0,15%,5%,20,1.4,-0.7%,-51%[inhibitor]
CC1CCCC(C)N1c1ccc(S(=O)(=O)N2CCOCC2)cc1Cl (stereo not given),-4,-10%,-6%,-4,-7.4,·,-30%[inhibitor]
Cc1sc2ncn(CC(=O)N3CCN(c4ccccc4F)CC3)c(=O)c2c1S(=O)(=O)N1CCOCC1,-8,10%,3%,7,-1.9,·,2%[15.4 µM]
Nc1cc(Oc2cccnc2)cc([N+](=O)[O-])c1,1,-22%,7%,0,-5.4,·,11%[15.4 µM]
C[N+](C)(C)CCC(=O)N1C/C(=C/c2ccccc2)C(=O)/C(=C\c2ccccc2)C1,-12,·,12%,·,·,1.6%,7%
CN(C)C(=O)c1cn(-c2ccccc2)c(=O)c2ccccc12,-3,12%,-4%,0,1.8,-26%,32%
O=C(NNC(=O)c1cccc(Br)c1)Nc1ccc(Cl)cc1,-14,18%,·,7,-1.9,·,8%[15.4 µM]
O=C(NCCC(c1ccccc1)c1ccccc1)c1cnc2sccn2c1=O,-2,30%,-2%,-7,-0.8,4.0%,0%
CCCCNC(=O)NS(=O)(=O)c1cnccc1Sc1ccc(Cl)cc1,-4,16%,-11%,12,-0.6,0.6%,?

# Some of these compounds in order of the D2 potentiator value, rising.
SMILES | D2 potentiator
Cc1cc(NC(=O)c2cccc(Br)c2)n[nH]1 | -13
O=C(NCCC(c1ccccc1)c1ccccc1)c1cnc2sccn2c1=O | -2
C[C@H](CO)N1C[C@H](C)[C@H](CN(C)C(=O)Cc2cccnc2)Oc2ncc(Br)cc2C1=O | 1
